ALR inh: human ALR oxidase inhibition via reduced H2O2 | P55789 | purified ALR, DTT oxidation, H2O2 HRP-luminol luminescence | inhibition, % (test concentration not listed) | 290,000 tested, 3.8% active | AID 485317;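 active means mean and each replicate at 75% or more; inconclusive means only one of the two met; inactive means neither met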;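 further: stock transfer was 7.5 nL into about 7.5 µL; 0% = neutral wells and 100% = wells with inactivated enzyme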
A1 inh: inhibitors of the anti-apoptotic protein A1, read as caspase activation; MEF A1-2A-BIM cells, Caspase-Glo 3/7 luminescence, 3 h; percent of clofoctol response, vehicle zero; caspase activation, % (concentration not given with the values); 330,000 tested, 0.066% active; AID 2462;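 active means over half of replicate activation scores above 10%, or exactly half above 10 with the replicate mean above 10; inconclusive means replicate mean below 10 yet half the replicates above 10; inactive means over half of replicates below 10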;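 further: wells of about 30 µL received 50 nL stock; many hits fall short of the cut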
Ecoli rRNA inh: inhibits bacterial ribosomal RNA function over humanized ribosomes; AID 720706; E. coli WT GFP vs humanized-ribosome RFP mutants, fluorescence, 24 h; active compounds read low; DMSO median 0, no signal -100; GFP signal change (wild-type ribosome), % (concentration not given with the values); 350,000 tested, 1.6% active;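 active means significant combined selectivity score with lowered wild-type GFP, culture density cut under 30%, mutant RFP and density less affected; inactive means any of these conditions unmet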; further: one replicate is shown; some compounds called inactive have numbers as strong as hits
Calb FLC: C. albicans growth modulation with fluconazole; C. albicans CaCi-2 (fluconazole-resistant clinical isolate) + fluconazole, Alamar Blue growth, 48 h; growth inhibition, % (no concentration beside the values); 300,000 tested, 0.57% active;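 active means most replicates above 75%; inconclusive means exactly half above 75%; inactive means most below 75%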;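 further: all wells also contain fluconazole at 8 µg/ml as a sub-toxic cotreatment; 0% = median of DMSO wells and 100% = median of geldanamycin control wells; wells of about 8 µL received 7.5 nL stock; the first replicate is given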
LANA-H2A inh: blocks KSHV LANA binding to histone H2A/H2B. Q9QR71. inhibition, % (test concentration not listed). 320,000 tested, 0.6% active. cell-free LANA-H2A/H2B peptide, fluorescence polarization. AID 2629; in the data active means inhibition mostly above about 10%, no sharp cut-off; inactive means mostly below about 6.7%;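 further: stock transfer was 7.5 nL into about 10 µL; 0% = median of vehicle wells and 100% = median of positive control wells; one replicate is shown; the record names a cut of 25% in any replicate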
Target sequence (Q9QR71 whole entry, looked up): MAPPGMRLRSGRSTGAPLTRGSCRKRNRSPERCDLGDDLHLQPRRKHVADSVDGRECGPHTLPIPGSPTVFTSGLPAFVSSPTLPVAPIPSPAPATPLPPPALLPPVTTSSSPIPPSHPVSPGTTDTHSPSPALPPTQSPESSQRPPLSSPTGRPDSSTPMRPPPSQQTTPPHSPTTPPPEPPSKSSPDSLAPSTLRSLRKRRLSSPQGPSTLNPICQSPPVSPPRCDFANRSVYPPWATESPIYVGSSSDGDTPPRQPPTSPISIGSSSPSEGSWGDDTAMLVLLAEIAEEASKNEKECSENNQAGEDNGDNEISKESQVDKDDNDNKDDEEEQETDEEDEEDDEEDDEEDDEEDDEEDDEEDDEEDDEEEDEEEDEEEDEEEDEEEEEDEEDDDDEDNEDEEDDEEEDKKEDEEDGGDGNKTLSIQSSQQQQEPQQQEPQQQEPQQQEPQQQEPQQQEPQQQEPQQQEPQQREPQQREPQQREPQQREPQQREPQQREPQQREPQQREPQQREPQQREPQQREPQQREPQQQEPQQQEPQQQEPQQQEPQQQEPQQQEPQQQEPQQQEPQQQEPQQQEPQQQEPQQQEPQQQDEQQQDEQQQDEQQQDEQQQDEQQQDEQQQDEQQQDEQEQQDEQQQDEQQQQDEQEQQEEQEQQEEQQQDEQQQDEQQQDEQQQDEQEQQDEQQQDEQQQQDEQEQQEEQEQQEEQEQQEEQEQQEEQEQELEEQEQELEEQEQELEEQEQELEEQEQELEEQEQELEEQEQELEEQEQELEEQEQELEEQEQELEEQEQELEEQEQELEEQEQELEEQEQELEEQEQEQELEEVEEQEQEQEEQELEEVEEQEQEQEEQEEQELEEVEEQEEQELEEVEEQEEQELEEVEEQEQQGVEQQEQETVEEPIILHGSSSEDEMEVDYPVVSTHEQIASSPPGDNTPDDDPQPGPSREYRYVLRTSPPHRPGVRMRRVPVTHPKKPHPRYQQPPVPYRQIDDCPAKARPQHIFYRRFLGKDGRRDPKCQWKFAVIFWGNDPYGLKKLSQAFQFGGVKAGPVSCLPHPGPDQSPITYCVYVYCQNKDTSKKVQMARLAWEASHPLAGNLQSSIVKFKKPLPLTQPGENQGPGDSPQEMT
Beta2AR agonist: human beta-2 adrenergic receptor agonism by FAP; P07550; Am2.2-beta2AR cells, FAP receptor internalization, flow cytometry; reference of the scale not given here; AID 504454; 340,000 tested, 0.43% active; response, % (concentration not given with the values);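 active means response above a set limit, near 3 SD of response in nonfluorescent compounds, cut at about 42% in these data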;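 further: stock transfer was 100 nL into about 11 µL; a reference agonist was the positive control; negative values mostly stem from fluorescent compounds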
Beta apoptosis: beta cell apoptosis inhibition. INS-1E cytokine-induced death, ATP luminescence, 48 h; percent of positive-control rescue, neutral wells zero. protection from apoptosis, % (concentration not given with the values). AID 435005. 300,000 tested, 0.8% active;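 active means all replicates at 75% or more, or half of them and the mean; inconclusive means half reach 75% but not the mean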;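 further: 0% = cytokine-treated negative control wells and 100% = positive control rescue; higher means more ATP so stronger rescue from cytokine killing; wells of about 40 µL received 100 nL stock; the first replicate is given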
T cruzi inh: T. cruzi replication inhibition | T. cruzi beta-gal in NIH3T3, luminescence, 90 h | inhibition, % (concentration not given with the values) | 300,000 tested, 1.4% active;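 active means mean inhibition across valid replicates above about 55%, limit read from the data; inconclusive means mean below that limit but half or more replicates reach it; inactive means mean below it, under half of replicates reach it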;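 further: signal also drops with host cell toxicity which is not excluded here; 0% = plate median of DMSO wells and 100% = zero luminescence signal; higher percent means less beta-gal luminescence so fewer parasites; stock transfer was 50 nL into about 50 µL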
Ecoli rRNA inh OD600: also measured in Ecoli rRNA inh; calls as there; OD600 change, %; measured here: OD600 growth;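 optical density of the mix in the first replicate; 0 = DMSO median and -100 = no signal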
Ecoli rRNA inh RFP: further read-out of Ecoli rRNA inh, marked with its call; RFP signal change, %; measured here: RFP humanized mutant strains;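 first replicate; 0 = DMSO median and -100 = no signal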
* marks the source's active call; other numbers are inactive results; u = inconclusive; x = not tested or not shown.

SMILES	ALR inh	A1 inh	Ecoli rRNA inh	Ecoli rRNA inh OD600	Ecoli rRNA inh RFP	Calb FLC	LANA-H2A inh	Beta2AR agonist	Beta apoptosis	T cruzi inh
Cc1cccc2cc(CN(Cc3nnnn3C3CCCC3)C3CCCCC3)c(=O)[nH]c12	1	-0.7	x	x	x	43	6.2	-8	0	-12
CC(C(=O)Nc1ccccc1F)N1C(=O)c2ccccc2C1=O (stereo not drawn)	4	0.1	x	x	x	2	-2.4	-2	-11	-3
Cc1ccc(S(=O)(=O)NCCc2nnc3ccc(NCCCOC(C)C)nn23)cc1	-26	-0.9	8	-4	-0.8	-8	-2.5	0	-2	4
C/C(=N/NC(=O)CNC(=O)/C=C/c1ccccc1)c1ccco1	-7	-0.6	0	-1	-2.0	27	1.3	8	-3	9
O=C(CCc1ccccc1)NCC1OCCc2ccccc21 (stereo not drawn)	x	0.7	-4	-6	-6.0	4	5.7	0	-16	-8
CCn1c(=O)c2cc(C(=O)NCc3cccs3)sc2c2ccccc21	3	-0.1	-4	3	-2.1	x	0.3	5	-4	x
Cc1csc(NC(=O)C2CCCCC2C(=O)O)n1 (stereo not drawn)	18	0.9	x	x	x	x	1.8	3	-3	-3
CCOC(=O)c1ccc(CN2Cc3ccccc3C2=O)cc1	x	1.4	-4	-12	-2.6	-5	-1.3	-1	5	3
COCCCNc1ncnc2c1nc1n2CCCC1	6	1.3	15	6	6.1	1	-0.3	1	0	3
O/N=C(\Cc1cscn1)c1ccc(O)cc1O	82*	0.0	3	10	4.0	30	-0.9	-1	-15	-15
COc1ccc(CCNC(=O)CN(c2ccccc2OC)S(C)(=O)=O)cc1OC	-1	-0.2	13	10	6.0	5	-4.3	1	-7	-4
CCCCn1c(-c2cccc(Br)c2)nc2cc3[nH]c(=O)c(C(C)C)nc3cc21	-45	-0.2	x	x	x	-8	8.8	8	5	45
O=[N+]([O-])c1ccccc1Nc1ccccc1	-16	-0.1	11	-4	-3.0	-12	2.0	-7	1	2
Cc1ccc(S(=O)(=O)Nc2ccc3ccccc3n2)cc1	-3	0.5	-6	-1	1.5	-5	-4.2	-1	1	13
COc1ccccc1N(CC(=O)N1CCCCCC1)S(=O)(=O)c1ccc(C)cc1	0	0.3	-13	-13	5.5	7	0.4	-5	3	3

Retrieved one by one from the entries so far:
SMILES	ALR inh	A1 inh	Ecoli rRNA inh	Ecoli rRNA inh OD600	Ecoli rRNA inh RFP	Calb FLC	LANA-H2A inh	Beta2AR agonist	Beta apoptosis	T cruzi inh
O=[N+]([O-])c1ccccc1Nc1ccccc1	-16	-0.1	11	-4	-3.0	-12	2.0	-7	1	2
COc1ccc(CCNC(=O)CN(c2ccccc2OC)S(C)(=O)=O)cc1OC	-1	-0.2	13	10	6.0	5	-4.3	1	-7	-4

(more compounds)
SMILES	ALR inh	A1 inh	Ecoli rRNA inh	Ecoli rRNA inh OD600	Ecoli rRNA inh RFP	Calb FLC	LANA-H2A inh	Beta2AR agonist	Beta apoptosis	T cruzi inh
NC(=O)c1cn(-c2ccccc2)nc1-c1cccnc1	-3	-0.3	x	x	x	u	-1.3	-7	-2	-1
COC(=O)[C@H](CCSC)NC(=O)Nc1ccc(S(N)(=O)=O)cc1	0	-0.2	14	5	4.9	7	2.1	-1	-4	-10
CCC(C)(C)n1nnnc1C(c1cc(OC)ccc1OC)N1CCC(C(N)=O)CC1 (stereo not drawn)	-3	0.9	x	x	x	-6	0.3	13	0	-7
Cc1csc(NC(=O)c2nc(-c3ccccc3)n(-c3ccccc3)n2)n1	27	2.0	x	x	x	u	-0.3	1	-3	9
COC(=O)c1ccc(C2c3[nH]c4ccccc4c3C[C@H]3C(=O)N(C4CC4)CC(=O)N23)cc1 (stereo partly drawn)	-1	1.5	9	-3	1.8	10	-3.6	-2	0	11
COc1ccc(NC(=S)NC2CCN(Cc3ccccc3)CC2)cc1OC	x	0.1	7	3	0.2	1	-2.5	4	-1	-10
O=c1cc(CN2CCOCC2)nc(C2CC2)[nH]1	x	0.8	x	x	x	4	-1.3	-5	-6	1
CC(=O)Nc1ccc(NC(=O)COC(=O)c2cc(S(=O)(=O)N3CCCC3)ccc2O)cc1	-4	0.1	0	6	0.4	x	1.2	0	2	x
CCN1CCC(N2CCN(c3ccc(F)cc3)CC2)CC1	97*	0.0	17	5	3.7	-1	-0.6	-6	10	-1
CC(=O)Nc1ccc(S(=O)(=O)NCCc2csc(-c3cccnc3)n2)cc1	-2	0.1	11	11	1.1	0	4.8	83*	-3	-4
Cc1ccnc(NC(=S)N2CCN(c3cccc(C(F)(F)F)c3)CC2)c1	26	-0.2	-62	-77	-19	8	-3.0	0	70	49
COc1ccc(S(=O)(=O)N(C)c2ccc(C(=O)NCc3ccco3)cc2)cc1OC	-5	-0.2	-5	-7	-0.5	11	0.2	-3	-1	2
Cc1ccc(S(=O)(=O)N2CCC(C(=O)OCC(=O)N(C)C3CCS(=O)(=O)C3)CC2)cc1C (stereo not drawn)	x	1.2	6	-3	-0.2	0	-4.6	5	-2	-1
O=C(Nc1ccc(Cl)cc1)Nc1ccccc1NS(=O)(=O)c1cccs1	19	0.2	-45	-73	-21	15	0.5	11	-3	-9
CCCn1[nH]cc(SC)c(=O)c1=O	9	0.5	x	x	x	10	-0.3	3	-2	-1
O=C(Nc1ccc2nc(-c3cccnc3)[nH]c2c1)C12CC3CC(CC(C3)C1)C2	1	1.3	x	x	x	3	-4.9	12	11	-2
CN(C)c1cc(-c2ccc(Br)cc2)oc(=O)c1Cl	-1	-0.5	-4	1	8.1	2	-1.0	-1	10	10
c1ccc(Nc2nc(-c3ccccn3)cs2)cc1	31	-11	x	x	x	u	-0.8	-9	1	43
Cn1c(=O)c2ccccc2n2c(=S)[nH]nc12	59	0.3	4	0	-3.9	20	5.2	-2	-5	-15
CCc1cccc(NC(=O)CCCN2C(=O)NC(C)(C)C2=O)c1	-1	0.2	3	10	-0.4	x	-4.9	-2	-4	x
Cc1ccc(OCc2nnc(SCC(N)=O)n2N)cc1	x	1.7	-12	-7	3.6	4	2.9	5	1	-10
CCOc1ccc(-n2ccnc(SCC(=O)NCc3cccc(OC)c3)c2=O)cc1	x	-0.9	-4	-8	-1.4	3	x	2	-15	-7
Cc1cc2cc(CN(Cc3ccc4c(c3)OCO4)C(=O)c3cnccn3)c3nnnn3c2cc1C	-3	-0.1	x	x	x	23	3.2	-10	-2	39
COc1ccc(-n2cc(C(=O)O)c3ccccc3c2=O)cc1	-5	0.1	10	8	0.0	5	-0.3	1	x	3
COc1ccccc1OC(=O)c1ccc(S(=O)(=O)N(C)C)cc1	0	0.4	x	x	x	-8	0.1	1	0	-14
O=C(c1cc2c(s1)-c1ccccc1OC2)N1CCN(c2ccccn2)CC1	x	-1.1	-15	-25	-2.5	-2	1.6	-7	0	-8
O=C(Nc1sc2c(c1C(=O)NC1CCCCC1)CCC2)c1ccco1	x	x	-10	-1	36	6	x	-11	x	23
O=C(CCS(=O)(=O)c1cccc2nonc12)NCCc1ccccc1	-24	-0.6	x	x	x	-3	2.0	3	-6	0
Cc1csc(NC(=O)/C=C/c2ccco2)n1	4	-1.9	x	x	x	-14	-0.8	-2	-4	18
CCOc1ccc(S(=O)(=O)N(C)c2ccc(OCC(=O)NCc3ccco3)cc2)cc1	-3	0.5	x	x	x	-6	1.4	-6	-1	-14
Nc1nc(N)c2nc(CNc3ccc(C(=O)NC(CCC(=O)O)C(=O)O)cc3)cnc2n1 (stereo not drawn)	-18	0.7	x	x	x	x	-1.5	x	-7	x
c1ccc2c(c1)ncn2CCCOc1ccc2c(c1)CCC2	-29	-1.4	x	x	x	-26	-2.4	3	71	-11

Grouped by structure: the compounds so far with an NH in an aromatic ring
SMILES	ALR inh	A1 inh	Ecoli rRNA inh	Ecoli rRNA inh OD600	Ecoli rRNA inh RFP	Calb FLC	LANA-H2A inh	Beta2AR agonist	Beta apoptosis	T cruzi inh
Cc1cccc2cc(CN(Cc3nnnn3C3CCCC3)C3CCCCC3)c(=O)[nH]c12	1	-0.7	x	x	x	43	6.2	-8	0	-12
CCCCn1c(-c2cccc(Br)c2)nc2cc3[nH]c(=O)c(C(C)C)nc3cc21	-45	-0.2	x	x	x	-8	8.8	8	5	45
COC(=O)c1ccc(C2c3[nH]c4ccccc4c3C[C@H]3C(=O)N(C4CC4)CC(=O)N23)cc1 (stereo partly drawn)	-1	1.5	9	-3	1.8	10	-3.6	-2	0	11
O=c1cc(CN2CCOCC2)nc(C2CC2)[nH]1	x	0.8	x	x	x	4	-1.3	-5	-6	1
CCCn1[nH]cc(SC)c(=O)c1=O	9	0.5	x	x	x	10	-0.3	3	-2	-1
O=C(Nc1ccc2nc(-c3cccnc3)[nH]c2c1)C12CC3CC(CC(C3)C1)C2	1	1.3	x	x	x	3	-4.9	12	11	-2
Cn1c(=O)c2ccccc2n2c(=S)[nH]nc12	59	0.3	4	0	-3.9	20	5.2	-2	-5	-15

Some of the compounds tested (hit frequency here may not be typical).
